# Screens: PubChem BioAssay, several laboratories
# ugtP null kill: kills S. aureus RN4220 lacking UgtP. S. aureus RN4220 ugtP deletion, OD600 growth, 16 h; some inactives read as strong as hits. growth inhibition, % (no concentration beside the values). AID 1259309. actives 0.54% (n = 330,000);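 active = z-score under -3 and OD600 up to 0.15 on both plates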;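 note: plate controls were untreated wells for no effect and antibiotic for full effect; wells of about 80 µL received 100 nL stock; the first replicate is given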
# Mtb hypoxia rep: reduces hypoxia-regulated biosensor signal in M. tuberculosis | fluorescence inhibition, % (concentration not given with the values) | actives 0.1% (n = 300,000) | M. tuberculosis hypoxia-regulated fluorescent reporter, fluorescence;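 active = 35 to 45% if threefold the growth effect, above 45% if 1.5-fold the growth effect; inactive = the rest, general growth blockers included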;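 note: wells of about 50 µL received 100 nL stock; 0% = vehicle wells and 100% = reference inhibitor wells; whole bacteria with a GFP reporter of the hypoxia response; strong numbers were not always called active; many hits fall short of the cut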
# Sa RN4220 lethal: S. aureus RN4220 growth inhibition; OD600, 16 h; inhibition, % (concentration not given with the values); actives 0.33% (n = 330,000);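 active = z-score of -3 or lower and OD600 up to 0.18 on both plates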;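 note: plate controls were untreated cells for no effect and reference antibiotic for full effect; stock transfer was 100 nL into about 80 µL; one replicate is shown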
# Bead autofluor: compound fluorescence in toxin protease inhibitor counterscreen; compound autofluorescence counterscreen, microsphere flow cytometry; stronger effect = higher value; fluorescence intensity (no concentration beside the values); actives 3.1% (n = 360,000);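 active = at least 3 SD above the mean of all compounds, about 16000 in these data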;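 note: 100 nL of 1 mM stock went into each well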
# BJeLR lethal: kills HRASV12-expressing BJeLR cells; AID 1554; actives 0.17% (n = 300,000); BJeLR (HRASV12) viability, CellTiter-Glo ATP luminescence, 48 h; reference of the scale not given here; inhibition, % (no concentration beside the values);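 active = replicate mean above 50%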;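 note: 50 nL library stock added to about 25 µL; numbers are from one replicate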
# PrP 5UTR inh: inhibition of PrP 5' UTR reporter expression; actives 0.35% (n = 340,000); inhibition, % (concentration not given with the values); cell-based PrP 5' UTR mRNA reporter, plate reader;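 active = every replicate at 50% or more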;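 note: 0 = median of the neutral control wells; tested in H4 reporter cells; numbers are from one replicate; inactives centre near -14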
# Mtb hypoxia rep growth: further read-out of Mtb hypoxia rep, marked with its call; growth inhibition, %; measured here: M. tuberculosis growth (absorbance);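 0% = vehicle and 100% = reference antibiotic; read after six days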
# The depositor's hits bear a star; . = not tested or not shown; & = joins results of further samples.
entry	Molecule	ugtP null kill	Mtb hypoxia rep	Mtb hypoxia rep growth	Sa RN4220 lethal
1	Cc1cc(S(=O)(=O)NCCc2ccccc2)c(C)s1	3.1	12.2	5.7	0.2
2	Cc1cc(=O)oc2c(CN(CC(C)C)CC(C)C)c(O)ccc12	3.6	4.9	8.1	2.5
3	CCCC(=O)NC(c1ccccc1OC)c1ccc2cccnc2c1O (configuration not stated)	21.6	-1.4	2.9	14.2
4	CC(=NNC(=O)c1ccccc1)c1ccc(NC(=O)C(F)(F)F)cc1	4.0	12.1	0.4	4.6
5	CCn1c(=O)c2ccccc2n2c(SCC(=O)N3CCCc4ccccc43)nnc12	9.7	14.9	0.0	4.2
6	Cc1ccc(-c2csc(C(C#N)=C(O)CN3CCN(C(=O)c4ccco4)CC3)n2)cc1	15.2&-3.7	4.8&3.7	1.5&8.9	7.1&-6.6
7	CC(C)N(Cc1ccccc1)C(=O)c1ccc2c(c1)OCO2	-5.4	-4.6	4.9	0.4
8	CN(C(=O)c1cc([N+](=O)[O-])ccc1N1CCCC1)C1CCCCC1	12.5	-5.5	-7.3	1.1
9	CN(Cc1ccccc1)C(=S)NC(=O)c1ccc(-c2ccccc2)cc1	20.6	6.8	-2.1	1.0
10	Cc1c(C(=O)NN2CCN(C)CC2)cccc1[N+](=O)[O-]	3.2	6.0	5.3	5.8
11	O=C(CCn1nc(-c2ccc(Cl)cc2)ccc1=O)NCc1ccccn1	-4.7	3.7	10.3	6.9
12	CC(=O)c1c(C)[nH]c(C(=O)NCCc2c[nH]c3ccccc23)c1C	4.8	2.1	4.6	-0.4

entry	Bead autofluor	BJeLR lethal	PrP 5UTR inh
1	5782	4.1	-8.4
2	.	-7.1	.
3	4371	18.4	30.1
4	.	.	.
5	24095*	.	5.6
6	3069	.	-9.2
7	4644	-0.4	3.9
8	4401	0.7	-23.6
9	9931	-3.6	-8.2
10	8417	-5.2	0.1
11	2562	-4.1	-3.5
12	3896	-0.8	-28.5

# Brought forward from above: 6 compounds; new compounds follow.
entry	Molecule	ugtP null kill	Mtb hypoxia rep	Mtb hypoxia rep growth	Sa RN4220 lethal
7	CC(C)N(Cc1ccccc1)C(=O)c1ccc2c(c1)OCO2	-5.4	-4.6	4.9	0.4
8	CN(C(=O)c1cc([N+](=O)[O-])ccc1N1CCCC1)C1CCCCC1	12.5	-5.5	-7.3	1.1
9	CN(Cc1ccccc1)C(=S)NC(=O)c1ccc(-c2ccccc2)cc1	20.6	6.8	-2.1	1.0
10	Cc1c(C(=O)NN2CCN(C)CC2)cccc1[N+](=O)[O-]	3.2	6.0	5.3	5.8
11	O=C(CCn1nc(-c2ccc(Cl)cc2)ccc1=O)NCc1ccccn1	-4.7	3.7	10.3	6.9
12	CC(=O)c1c(C)[nH]c(C(=O)NCCc2c[nH]c3ccccc23)c1C	4.8	2.1	4.6	-0.4
13	CN(C)c1ccc(NC(=O)CN2CCN(S(=O)(=O)c3cc(Cl)ccc3Cl)CC2)cc1	6.8	.	.	-1.3
14	CC(=O)OCC1OC(n2ncc(=O)n(Cc3ccccc3)c2=O)C(OC(C)=O)C1OC(C)=O (configuration not stated)	1.2	-5.3	-2.8	-0.1
15	COc1ccc(OCC(=O)N2c3ccccc3CC2C)c([N+](=O)[O-])c1 (configuration not stated)	0.8	4.4	6.1	0.5
16	CCn1c(C)c(C)c2cc(C(=O)NCCCN3CCOCC3)ccc21	3.0	3.8	7.1	-0.4
17	CSc1ccc(/C=N/Nc2ccc(Cl)c(C(=O)O)c2)cc1	.	.	.	.
18	O=C1Nc2ccc(Br)cc2C(c2ccccc2)=NC1O (configuration not stated)	10.3	12.0	-0.3	3.6
19	Cc1cc(Nc2ccccc2)n(CCC#N)n1	-3.2	23.3	-19.7	-20.3
20	COc1cc(C(=O)N(Cc2cccnc2)Cc2cc3cc4c(cc3[nH]c2=O)OCCO4)cc(OC)c1OC	-1.7	-14.8	0.1	-3.8
21	CC(C)COP(=O)(OCC(C)C)C(O)c1cccnc1 (configuration not stated)	-3.1	5.5	9.3	1.8
22	CCOC(=O)C1(CCOc2ccccc2)CCN(Cc2cccc(O)c2)CC1	-0.1	15.6	8.5	8.5
23	O=C1N=c2ccccc2=C1c1c(O)[nH]c2c(C(F)(F)F)cccc12	98.0*	8.3	-5.4	96.1*
24	CCCn1c(N)c(N(CCOC)C(=O)c2ccc(S(=O)(=O)N3CCOCC3)cc2)c(=O)[nH]c1=O	6.4	1.3	6.2	3.0

entry	Bead autofluor	BJeLR lethal	PrP 5UTR inh
7	4644	-0.4	3.9
8	4401	0.7	-23.6
9	9931	-3.6	-8.2
10	8417	-5.2	0.1
11	2562	-4.1	-3.5
12	3896	-0.8	-28.5
13	4426	-3.1	-17.3
14	3442	0.1	-27.2
15	3599	.	-25.5
16	6096	3.3	-2.2
17	3870	17.8	-150.1
18	3415	-1.1	2.0
19	2809	-0.6	-14.3
20	22318*	-8.4	-7.7
21	7728	-4.4	-19.3
22	3937	-11.1	-23.8
23	3313	7.3	-21.7
24	3687	.	-5.1

# (list continues)
entry	Molecule	ugtP null kill	Mtb hypoxia rep	Mtb hypoxia rep growth	Sa RN4220 lethal
25	COc1cc(OC)c(C(=O)Nc2cccc(C(C)=O)c2)cc1OC	-9.2	.	.	-3.8
26	CS(=O)(=O)N(CC(=O)N1CCCC1)c1ccccc1F	-0.9	12.3	2.5	5.4
27	CC(C)(C)c1ccc(CSc2cnn(C(C)(C)C)c(=O)c2Cl)cc1	24.6	5.7	8.6	4.2
28	Cc1ccc(C2C=C(c3ccccc3OC(F)F)Nc3ncnn32)cc1 (configuration not stated)	-13.0	-5.8	8.0	-3.5
29	Cc1nnc(SCC(=O)N2c3ccccc3Sc3ccccc32)n1N	-0.5	11.8	9.3	7.8
30	O=C(NC1CCCCC1)Sc1ccc(Cl)cc1	65.7	.	.	1.1
31	CCOCCCNC(=O)Cc1ccc(Br)cc1	5.5	17.8	14.7	2.6
32	N#CC(c1ccc(O)cc1)N1CCCCC1 (configuration not stated)	0.3	-6.4	-3.1	-3.6
33	O=C(COC(=O)/C=C/c1ccccc1Cl)NC(=O)NCc1ccccc1	-2.4	-3.3	6.7	2.1
34	CC(=O)c1cccc(NS(=O)(=O)N(C)C)c1	-0.3	.	.	-0.7
35	COc1cc(OC)c(OC)cc1CN1CCN(Cc2cccc(F)c2)CC1	-0.4	2.9	11.8	-0.1
36	Cc1cccc(-c2nc3ccccc3c(=O)n2NC(=S)N(C)C)c1	11.5	3.6	-1.7	0.6

entry	Bead autofluor	BJeLR lethal	PrP 5UTR inh
25	2727	-1.1	-12.7
26	4013	-7.8	-28.5
27	3510	29.2	-24.8
28	3037	1.7	-35.5
29	11316	-6.6	-11.9
30	2227	-6.2	-6.3
31	2430	-11.4	-14.6
32	.	-0.1	-5.1
33	3900	.	-25.4
34	2518	-1.9	-17.8
35	3739	4.7	-7.8
36	1987	13.1	-5.7

# (further entries)
entry	Molecule	ugtP null kill	Mtb hypoxia rep	Mtb hypoxia rep growth	Sa RN4220 lethal
37	CN1C[C@H](CO)C=C2c3cccc4[nH]cc(c34)C[C@H]21	5.1	.	.	4.1
38	COc1ccccc1NC(=S)NC1CC2CCC1C2 (configuration not stated)	-0.4	-7.6	-5.0	-4.0
39	COc1cc(NC(=O)c2cc3c(CO)cnc(C)c3oc2=Nc2cccc(C(N)=O)c2)cc(OC)c1	-6.8	12.0	10.6	6.2
40	CCN(CC)S(=O)(=O)c1ccc(S(=O)(=O)N2CCCC2)cc1	2.3	3.7	2.7	4.5
41	CC(=O)c1cccc(NC(=O)c2ccc(Br)o2)c1	-4.4	1.6	10.6	2.2
42	CC(Sc1nnc2ccccn12)C(=O)Nc1ncc(Cl)cc1Cl (configuration not stated)	2.9	.	.	-2.1
43	O=C(NN=Cc1ccc(Br)s1)Nc1ccccc1	-9.3	-6.1	4.6	1.4
44	O=S(=O)(c1ccccc1)c1nc(-c2cccs2)oc1NCC1CCCO1 (configuration not stated)	10.8	.	.	-4.3
45	Cc1c(C)n(Cc2ccccc2)c2ncnc(NCCCO)c12	17.9	6.7	4.7	-0.3
46	COc1cccc(/C=N/NC(=O)C(C)n2nnc3ccccc32)c1 (configuration not stated)	.	.	.	.
47	CCC/S(C)=N/S(=O)(=O)c1ccc(C)cc1 (configuration not stated)	4.1	15.5	8.4	3.3
48	O=C1CCC(CN(Cc2ccccn2)Cc2nc(Cc3cccc(C(F)(F)F)c3)no2)N1 (configuration not stated)	-10.4	-1.4	6.5	-4.9

entry	Bead autofluor	BJeLR lethal	PrP 5UTR inh
37	3624	5.7	-17.2
38	4356	-2.6	-9.2
39	3694	-1.3	-60.5
40	3396	2.2	-14.3
41	10816	3.4	0.9
42	3884	4.5	6.6
43	.	.	.
44	2234	-1.1	-12.4
45	3865	-1.1	-17.3
46	2071	8.9	0.3
47	1940	1.9	-21.7
48	.	.	.

# Continued.
entry	Molecule	ugtP null kill	Mtb hypoxia rep	Mtb hypoxia rep growth	Sa RN4220 lethal
49	COc1cccc2c(C)cc(N3CCCCCC3)nc12	2.2	-1.1	1.5	4.3
50	Cc1cnc(C)c(N2CCN(Cc3nc(-c4cccc(F)c4F)oc3C)CC2)n1	1.9	-2.8	11.6	-0.2
51	CCOc1ccc(N(CC(=O)NCCSCc2ccc(C)cc2)S(C)(=O)=O)cc1	10.0	4.7	0.8	3.7
52	COc1cc(OC)c2cc[nH]c2c1	5.3	8.7	1.9	2.8
53	O=C(COc1ccccc1)N1CCN(c2ccc([N+](=O)[O-])c(N3CCCCC3)c2)CC1	-5.7	0.4	-4.4	-0.2
54	O=C(NCc1ccccc1CN1CCCC1)C1CCN(S(=O)(=O)c2ccc(F)c(F)c2)CC1	2.4	6.9	4.8	2.4
55	O=C(O)CN1C(=O)NC2(CCc3ccccc32)C1=O (configuration not stated)	8.9	-8.4	6.1	4.2
56	CCOC(=O)c1[nH]c(C)c(C(=O)N2CCN(c3ccc(F)cc3)CC2)c1C	0.2	-4.9	3.2	-1.4
57	CCc1ccc(OCC(=O)Nc2nnc(-c3ccco3)s2)cc1	2.5	3.6	-4.6	-0.1
58	CN(C(=O)n1cnc2ccccc21)c1ccccc1	2.6	4.9	1.8	2.8
59	CCCn1c(N)c(N(CCOC)C(=O)c2ccc([N+](=O)[O-])cc2Cl)c(=O)[nH]c1=O	15.3	15.0	0.1	3.6
60	CCC(C)(C)NC(=O)C(c1ccc(C)o1)N(Cc1cccs1)C(=O)Cn1nnc2ccccc21 (configuration not stated)	-8.0	11.5	5.8	10.3

entry	Bead autofluor	BJeLR lethal	PrP 5UTR inh
49	3753	-1.1	-21.9
50	4916	-1.2	-12.3
51	3718	-6.4	-16.2
52	1987	-1.7	-7.5
53	11162	-7.0	-49.1
54	.	.	-10.0
55	3029	-7.2	-16.6
56	21567*	-5.3	-18.8
57	4684	-6.5	-26.5
58	2109	4.1	-18.7
59	4255	3.5	-24.1
60	3190	-1.4	-16.8

# (next part)
entry	Molecule	ugtP null kill	Mtb hypoxia rep	Mtb hypoxia rep growth	Sa RN4220 lethal
61	COC(=O)c1ccc(Nc2nc3ccc(C)cc3n3cnnc23)cc1	-3.8	2.7	-6.3	1.9
62	C=CCNc1nc(N)c(C(=O)c2ccc3c(c2)OCO3)s1	1.0	.	.	-4.8
63	COc1ccc(NC(=O)CCSCCC(=O)Nc2ccc(OC)cc2OC)c(OC)c1	-1.4	-6.6	-1.6	1.0
64	COc1ccc(CCNC(=O)c2cn3ccc(C)cc3n2)cc1OC	2.0	-5.0	-4.4	13.3
65	CCOC(=O)c1ccc(NC(=O)C2CCCN(S(=O)(=O)c3ccc(F)cc3)C2)cc1 (configuration not stated)	-4.1	10.7	2.6	4.2
66	O=C(CC1SCCNC1=O)Nc1ccc(Cl)c(Cl)c1 (configuration not stated)	-0.4	4.1	4.6	2.1
67	CCOC(=O)c1oc2ccccc2c1COC(=O)CNC(=O)c1ccccc1OC	7.6	7.3	-5.9	11.0

entry	Bead autofluor	BJeLR lethal	PrP 5UTR inh
61	3016	9.9	-1.7
62	2671	.	9.9
63	2119	6.2	-42.0
64	4593	0.9	-33.1
65	24696*	4.2	-14.7
66	3464	1.5	-31.0
67	6439	-12.2	-9.6
